Compound activity (PubChem)
2A Renilla: FMDV 2A StopGo reporter, Renilla signal | HEK cells with a luciferase reporter of 2A StopGo recoding | 120,000 compounds, 0.32% hits | Potency, µM (highest dose often 57.5 µM), for the others: at the highest dose signal change, negative = less light; active means well fitted falling curve with a large enough effect; inconclusive means small, poorly fitted or top-dose-only effect; inactive means no such curve, though single readings can be large or run the other way; further: nearly all actives have a fitted effect of over 55% in size; overnight with compound
2A firefly: FMDV 2A StopGo reporter, firefly signal; Potency, µM (doses to about 57.5 µM), inactives show at the highest dose signal change, negative = less light; 120,000 compounds, 0.23% hits; HEK cells with a luciferase reporter of 2A StopGo recoding; active = well fitted falling curve with a large enough effect; inconclusive = small, poorly fitted or top-dose-only effect; inactive = no such curve, though single readings can be large or run the other way; further: nearly all actives have a fitted effect of over 60% in size; overnight with compound
An asterisk follows results filed as active; [ ] = another dose, or the depositor's remark. On the % scale 0 is the no-effect control and ±100 the full control effect; potency means the concentration at half of the fitted maximal effect. Only part of the results is shown; count on the stated rates, not on these rows.

N#Cc1c(Cl)nc(N/N=C/c2ccc(Cl)c([N+](=O)[O-])c2)c(Cl)c1Cl was read as 2A Renilla 0.6% and 2A firefly 16.8%.
CCc1ccc(C2NC(=O)NC(CN(CC)Cc3ccccc3)=C2C(=O)OC)cc1 (stereo unspecified) was read as 2A Renilla 8.1% and 2A firefly 10.0%.
Cc1cc(NC(=O)C(C)SCC(=O)Nc2ccccc2)no1 (stereo unspecified) was read as 2A Renilla 7.3% and 2A firefly 19.8%.
Screening COc1ccc(-n2cc(-c3ccccc3)nc2SCC(=O)Nc2ccccc2C)cc1 returned 2A Renilla 23.3% and 2A firefly 41.9%[activator].
Screening COc1ccc(-c2cc3ccc(O)c(CN4CCCC4)c3oc2=O)cc1OC returned 2A Renilla -2.4% and 2A firefly 24.6%.
For Cc1ccc(-c2cc(C(=O)Nc3ccncc3)c3ccccc3n2)cc1 the results were 2A Renilla 3.8% and 2A firefly 0.0%.
Screening CN1CCCC(CC2c3ccccc3Sc3ccccc32)C1 (stereo unspecified) returned 2A Renilla -14.7% and 2A firefly -12.6%.
`O=C(NCc1ccccc1)N1CCc2c(sc3c2CCCC3)C1c1ccccc1` (stereo unspecified) gave 2A Renilla 3.6% and 2A firefly -6.7%.
`O=C1c2ccccc2C(=O)C1C(=O)C(c1ccccc1)c1ccccc1` gave 2A Renilla -1.0% and 2A firefly -17.8%[11.5 µM].
Screening COc1cc(-c2cc3n(C)c(C)c(CCC(=O)NC4CCC(C)CC4)c(=O)n3n2)cc(OC)c1OC (stereo unspecified) returned 2A Renilla 0.0% and 2A firefly 4.0%.
Screening Cc1ccc(NC(=O)Cc2csc(NC(=O)c3ccoc3C)n2)cc1C returned 2A Renilla -11.6% and 2A firefly 18.0%.
For CC(C)n1cnnc1SCC(=O)N(C)CCOc1ccc(Br)cc1 the results were 2A Renilla 5.3% and 2A firefly 23.1%.
Nc1ccccc1OCCCc1ccccc1 was read as 2A Renilla -4.4% and 2A firefly 185.9%[activator].
`Cc1nc2ccccc2n1CCc1nc2c3ccccc3nc(SCC(=O)Nc3cccc(C(F)(F)F)c3)n2n1` gave 2A Renilla -16.5% and 2A firefly -26.7%.
For CCOC(=O)c1sc(Nc2ccccc2C)nc1C(F)(F)F the results were 2A Renilla 2.8% and 2A firefly 7.8%.
`CC(=O)c1ccc(NC(=O)c2sc(-n3nc(C)c(Cc4ccccc4)c3C)nc2C)cc1` gave 2A Renilla -5.4% and 2A firefly -9.7%.
For CCC(C(=O)Nc1ccccc1OC)n1cnc2c1c(=O)n(C)c(=O)n2C (stereo unspecified) the results were 2A Renilla -15.6% and 2A firefly -5.3%.
Screening CCc1nc2ccccc2n1CC(=O)Nc1cccc(C#N)c1 returned 2A Renilla -17.4% and 2A firefly -17.0%.
Cc1c(Cl)cccc1NC(=O)Nc1nnc(N(C)C2CCCCC2)s1 was read as 2A Renilla -21.9% and 2A firefly 0.0%.
`O=C(NCCNc1ncccc1C(F)(F)F)Nc1ccc(F)cc1F` gave 2A Renilla 182.1%[activator] and 2A firefly 0.0%.
`Cc1ccc(-c2nn(CCC#N)c(=O)c3ccccc23)cc1` gave 2A Renilla 6.2% and 2A firefly 19.0%.
Cc1ccc(C)c(S(=O)(=O)Nc2ccc3oc(C)nc3c2)c1 was read as 2A Renilla 207.0%[activator] and 2A firefly 16.6%.
`COc1ccc(CCC(=O)NCc2ccc3c(c2)CCN3C(=O)c2cccc(C)c2)cc1` gave 2A Renilla inconclusive and 2A firefly inconclusive.
For O=C(CC1Oc2ccc(Cl)cc2NC1=O)NCc1ccccc1 (stereo unspecified) the results were 2A Renilla -10.4% and 2A firefly -10.8%.
Screening CCc1nnc2sc(-c3ccc(NC(=O)C(c4ccccc4)c4ccccc4)cc3)nn12 returned 2A Renilla 18.5% and 2A firefly -0.8%.
CCc1nnc2c3ccccc3nc(N3CCN(c4cc(Cl)ccc4C)CC3)n12 was read as 2A Renilla -12.1% and 2A firefly -12.6%.
Screening Cc1ccc(NC(=O)CN2CCCN(Cc3ccccc3Cl)S2(=O)=O)c(C)c1 returned 2A Renilla 7.7% and 2A firefly -6.2%.
Screening CCC(CO)NC(=O)c1ccc(-c2nn(C)c(=O)c3ccccc23)cc1 (stereo unspecified) returned 2A Renilla 22.3% and 2A firefly 27.7%.
O=C(O)c1ccc(COc2ccc(Br)cc2/C=N/O)cc1 was read as 2A Renilla 0.0% and 2A firefly 0.0%.
CCCOc1ccc(C(=O)NCC(c2ccc(OC)cc2)N2CCCCC2)cc1 (stereo unspecified) was read as 2A Renilla -14.5% and 2A firefly -23.6%.

Entries listed so far containing an aryl methoxy group (six):
Screening COc1ccc(-n2cc(-c3ccccc3)nc2SCC(=O)Nc2ccccc2C)cc1 returned 2A Renilla 23.3% and 2A firefly 41.9%[activator].
Screening COc1ccc(-c2cc3ccc(O)c(CN4CCCC4)c3oc2=O)cc1OC returned 2A Renilla -2.4% and 2A firefly 24.6%.
Screening COc1cc(-c2cc3n(C)c(C)c(CCC(=O)NC4CCC(C)CC4)c(=O)n3n2)cc(OC)c1OC (stereo unspecified) returned 2A Renilla 0.0% and 2A firefly 4.0%.
For CCC(C(=O)Nc1ccccc1OC)n1cnc2c1c(=O)n(C)c(=O)n2C (stereo unspecified) the results were 2A Renilla -15.6% and 2A firefly -5.3%.
`COc1ccc(CCC(=O)NCc2ccc3c(c2)CCN3C(=O)c2cccc(C)c2)cc1` gave 2A Renilla inconclusive and 2A firefly inconclusive.
CCCOc1ccc(C(=O)NCC(c2ccc(OC)cc2)N2CCCCC2)cc1 (stereo unspecified) was read as 2A Renilla -14.5% and 2A firefly -23.6%.

(further entries)
For Cc1cc(Br)ccc1NC(=O)CN(C)C(=O)c1cccc(-n2cccc2)c1 the results were 2A Renilla 60.6%[activator] and 2A firefly 16.6%.
Screening CC(C)S(=O)(=O)c1oc(-c2cccs2)nc1S(=O)(=O)c1ccc(F)cc1 returned 2A Renilla -10.4% and 2A firefly inconclusive.
For CCOC(=O)c1ccc2c(c1)N(CC(=O)Nc1ccc(CC)cc1)C(=O)c1ccccc1S2 the results were 2A Renilla 3.9% and 2A firefly 6.9%.
For O=C(CCc1ncc(-c2c(F)cccc2F)o1)N1CCN(c2ccc(F)cc2)CC1 the results were 2A Renilla 12.9% and 2A firefly 17.0%.
For COc1ccc(NC(=O)C(=O)NCCc2csc(-c3ccc(Cl)cc3)n2)cc1OC the results were 2A Renilla -14.3% and 2A firefly -1.5%.
Cc1ccc(NC(=O)CSc2nncn2C)c(C)c1 was read as 2A Renilla -12.0% and 2A firefly -1.4%.
`CC(C)CC(=O)Nc1ccc(N2CCCC2)cc1` gave 2A Renilla -1.0% and 2A firefly 0.0%.
Screening CN(CCOc1ccc(Cl)cc1)c1ccc(S(=O)(=O)N2CCCCC2)cn1 returned 2A Renilla 18.5% and 2A firefly -1.6%.
Screening Cc1ccc(C)c(CN2C(=O)c3ccccc3Sc3ccc(C(=O)NCc4cccs4)cc32)c1 returned 2A Renilla 3.7% and 2A firefly -14.8%.
Screening CCOC(=O)c1cc(-c2ccccc2)n(CCC(=O)NCCc2ccccc2)c1C returned 2A Renilla 0.0% and 2A firefly -22.2%.
`O=C(COc1ccc(F)cc1)Nc1ccc2nc(SCc3ccccc3)sc2c1` gave 2A Renilla -11.1% and 2A firefly -2.5%.
For COCCN(Cc1nc2ccccc2c(=O)[nH]1)C(=O)Cc1csc(-c2ccc(C)cc2)n1 the results were 2A Renilla 0.0% and 2A firefly 57.0%[activator].
CCc1ccccc1NC(=O)c1cc(S(=O)(=O)N2CCC(C)CC2)cn1C was read as 2A Renilla 39.6%[activator] and 2A firefly 3.5%.
Screening COCCCNc1oc(-c2ccc(COc3cccc(C)c3)o2)nc1C#N returned 2A Renilla -4.7% and 2A firefly -2.9%.
COCCNC(=O)NC(=O)CN(C)c1ccccc1 was read as 2A Renilla 10.4% and 2A firefly 5.0%.
COc1cc(C(=O)Nc2ccc(C)cc2)nc2ccc(Cl)cc12 was read as 2A Renilla -10.9% and 2A firefly -8.1%.
`Cc1c(-c2ccccc2)oc2c(C(=O)OCC(=O)C(C)(C)C)cccc2c1=O` gave 2A Renilla 24.8% and 2A firefly 22.3%.
Screening O=C(NC1C2CC3CC(C2)CC1C3)c1cccc(F)c1 (stereo unspecified) returned 2A Renilla 22.6% and 2A firefly 10.0%.
`CCOc1cccc(CC(=O)N2CCc3c([nH]c4ccc(OC)cc34)C2c2ccc(F)cc2)c1OCC` (stereo unspecified) gave 2A Renilla -4.5% and 2A firefly -5.5%.
COc1cccc(NC(=O)c2cccc3c(=O)c4c([nH]c23)CCCC4)c1 was read as 2A Renilla 4.9% and 2A firefly 35.2%[activator].
Screening Cc1cc(C)c(S(=O)(=O)N2CCN(Cc3cccc4cccnc34)CC2)c(C)c1 returned 2A Renilla -16.8% and 2A firefly -17.3%.
For CCN(CC)S(=O)(=O)c1cc(-c2onc(C)c2C)ccc1OC the results were 2A Renilla 101.0%[activator] and 2A firefly -8.9%.
Screening Cc1cc(C)c(NC(=O)CSc2nccn2-c2cccc(Cl)c2)c(C)c1 returned 2A Renilla 16.3% and 2A firefly 1.4%.
`COc1ccc(-c2nc3ccccc3c(=O)n2CCOc2ccccc2C)cc1` gave 2A Renilla 0.7% and 2A firefly 20.7%.
Screening Cc1cc(C(=O)CSc2nnc(C(C)Oc3ccccc3F)o2)c(C)n1C1CC1 (stereo unspecified) returned 2A Renilla 2.6% and 2A firefly -6.0%.
`Cc1oc2ncnc(N3CCOCC3)c2c1C(=O)NCCc1ccccc1` gave 2A Renilla 5.6% and 2A firefly 57.5%[activator].
For COc1ccc(CC(=O)Nc2cccc3cccnc23)cc1 the results were 2A Renilla -8.2% and 2A firefly 47.8%[activator].
Screening Cc1ccc(C(=O)COC(=O)c2cccc(Oc3ccc(C#N)c(C#N)c3)c2)cc1 returned 2A Renilla -6.4% and 2A firefly 2.9%.
For CCCCn1nc(C(=O)Nc2nc3c(C)cccc3s2)c2ccccc2c1=O the results were 2A Renilla 0.2% and 2A firefly 8.0%.
`COc1ccccc1N1CCN(c2nccnc2SCC(=O)Nc2ccc(F)cc2F)CC1` gave 2A Renilla inconclusive and 2A firefly inconclusive.
Screening Cc1ccc(NC(=O)c2cc(S(=O)(=O)NCCC3=CCCCC3)ccc2F)cc1C returned 2A Renilla 28.0% and 2A firefly -5.9%.
Screening Cc1nc2ccccc2c(C)c1CC(=O)N(C)C(C)c1cc2ccccc2o1 (stereo unspecified) returned 2A Renilla inconclusive and 2A firefly inconclusive.
Screening CCC1CCCCN1C(=O)Cn1c(=O)n(-c2ccc(F)c(C)c2)c(=O)c2sccc21 (stereo unspecified) returned 2A Renilla 7.0% and 2A firefly 17.0%.
Screening Cc1ccccc1Cn1cccc1CNC(=O)NC12CC3CC(CC(C3)C1)C2 returned 2A Renilla inconclusive and 2A firefly inconclusive.
Screening Cn1cc(S(=O)(=O)N2CCC(C(=O)Nc3ccc(OC(F)F)cc3)CC2)cc1C(N)=O returned 2A Renilla -3.3% and 2A firefly 0.7%.
For Cc1ccc(Cl)cc1N1C(=O)N(Cc2ccc(C#N)cc2)c2ccccc2S1(=O)=O the results were 2A Renilla 1.1% and 2A firefly -21.8%.
`Cc1cc(NC(=O)CCn2nc(-c3cccs3)oc2=O)ccc1Br` gave 2A Renilla 23.9% and 2A firefly 3.9%.
`CN(Cc1ccc(-c2ccc(Cl)cc2)o1)C(=O)CSc1nnc(C2CC2)n1C` gave 2A Renilla inconclusive and 2A firefly inconclusive.
For CCN1CCN(C(=O)CN(c2cccc(C)c2C)S(C)(=O)=O)CC1 the results were 2A Renilla -8.8% and 2A firefly -3.5%.
`CCOc1ccc(N2CC(c3nc4ccccc4n3CCOc3ccc(OC)cc3)CC2=O)cc1` (stereo unspecified) gave 2A Renilla -7.3% and 2A firefly -10.4%.
CN(C)C(=O)c1ccc(NC(=O)c2ccc3ccccc3n2)cc1 was read as 2A Renilla 25.6% and 2A firefly 0.0%.
`CN1CCN(c2c(F)cc3c(=O)c(C(=O)O)cn(CCF)c3c2F)CC1` gave 2A Renilla 2.9% and 2A firefly 8.5%.
For CC1=C(C(=O)Nc2cccnc2)C(c2cccc(F)c2)n2nc(SCc3ccccc3F)nc2N1 (stereo unspecified) the results were 2A Renilla -9.2% and 2A firefly -6.5%.
`COc1ccc([N+](=O)[O-])cc1NC(=O)COC(=O)c1ccc2c(c1)NC(=O)CS2` gave 2A Renilla 19.2% and 2A firefly 0.0%.
`Cc1cccc(Nc2ncc(Cc3ccccc3C)s2)n1` gave 2A Renilla 4.0% and 2A firefly 22.0%.
Screening Cc1nc(NCCc2ccc3c(c2)OCCO3)c2c3c(sc2n1)CCC3 returned 2A Renilla inconclusive and 2A firefly inconclusive.
Screening COc1ccc(OC)c(C2CCCN2CC(=O)N(CCC#N)c2ccccc2F)c1 (stereo unspecified) returned 2A Renilla -19.3% and 2A firefly -23.5%.
Screening CCc1ccc2oc(-c3cccc(NC(=O)c4ccc(N5CCC(C)CC5)c([N+](=O)[O-])c4)c3)nc2c1 returned 2A Renilla -9.2% and 2A firefly 0.2%.
Screening Cn1c(SCc2ccc(Cl)c3cccnc23)nnc1C(F)(F)F returned 2A Renilla 7.0% and 2A firefly 44.1%[activator].
For CCCCC(=O)N1CCC(c2nc3ccccc3o2)CC1 the results were 2A Renilla 18.3% and 2A firefly 8.1%.
`O=C(NC1CCN(S(=O)(=O)c2cccc(F)c2F)CC1)C1CC1` gave 2A Renilla -13.6% and 2A firefly -6.1%.
Screening CCCCn1c(=O)[nH]c(=O)c2c1nc(CSc1nnc(-c3ccco3)n1C)n2CC returned 2A Renilla 4.9% and 2A firefly 2.4%.
`CCNC(=O)NC(=O)C(C)N(C)CC(=O)Nc1ccc(O)cc1` (stereo unspecified) gave 2A Renilla 11.3% and 2A firefly 25.9%.
